Assay outcomes deposited in PubChem by National Center for Advancing Translational Sciences (NCATS).
Lassa entry = qHTS for Inhibitors of binding or entry into cells for Lassa Virus; Lassa virus pseudotyped entry inhibition, cell-based qHTS; control for the full effect not named in the record; many of its hits are not listed in these tables; 4.1% of 18,000 active; Potency, µM (top dose mostly 49.2 µM), for inactives: at the top dose activity change, negative = inhibition, most hits filed as inhibitors; active = well fitted inhibition curve with a large enough effect; inconclusive = small, poorly fitted or top-dose-only effect; inactive = no such curve, though single readings can be large or run the other way; tested in HEK293 cells; also: luciferase read-out
MARV entry inh = qHTS for Inhibitors of binding or entry into cells for Marburg Virus. Marburg virus pseudotype entry/binding inhibition, cell-based; control for the full effect not named in the record; many of its hits are not listed in these tables. Potency, µM (series often up to 49.2 µM), for the others: top-dose activity change, negative = inhibition, usual class: inhibitors. 6.5% of 18,000 active; active means well fitted inhibition curve with a large enough effect; inconclusive means small, poorly fitted or top-dose-only effect; inactive means no such curve, though single readings can be large or run the other way; tested in HEK293 cells; also: luciferase read-out
An asterisk follows results filed as active; ? = inconclusive; . = no result given; & = joins results of further samples; ! = not active in a repeat; [ ] = another dose, or the depositor's remark. % is scaled to controls: 0 for no effect and ±100 for the full control effect; potency is read from the fitted curve at half-maximal effect. The list is partial, so the mix of outcomes need not match the whole.

| mol | Lassa entry | MARV entry inh |
| --- | --- | --- |
| CC(C)c1c(C(=O)N2CCCCC2c2cccnc2)cnn1-c1nccc(-c2cccs2)n1 (stereo unspecified) | ? | -0.3% |
| O=C(Cc1ccc2c(c1)OCO2)N1CCOc2ccc(CN3CCOCC3)cc2C1 | -7.4% | ? |
| COc1ccc(-c2cc3c(N)ncnc3o2)cc1 | 55.1%[activator] | 91.1%[activator] |
| COc1cc2c(c(OC)c1OC)[C@@]1(c3ccccc3)CCCCC[C@H]1[C@@H]2NC(=O)C(F)(F)F | . | -12.8%[8.59 µM] |
| Cc1cc2c(c(-c3cnccn3)c1)OC(CNC(=O)C1CCCN(C)C1)C2 (stereo unspecified) | -7.3% | ? |
| CC(C)OC(=O)Nc1cccc(Cl)c1 | -15.3% | 23.8% |
| O=C(C1CCCCC1)N1C[C@@H](O)[C@@H](n2cc(C3CC3)nn2)C[C@@H]1c1ccc(Cl)cc1 | 11.4% | -18.9% |
| C=C1C(=O)OC(CCCCCCCC)C1C(=O)O (stereo unspecified) | 6.5% | -13.7% |
| O=C(O)c1cccc(/C=C2/C[C@@H]3[C@@H](/C=C/[C@@H](O)C4CCCCC4)[C@H](O)C[C@@H]3O2)c1 | -6.0% | 9.2% |
| NC(=Nc1ccccc1)NC(=O)c1nc(Cl)c(N)nc1N | 12.1%&39.2% | ? |
| COc1cccc(-c2cncnc2NCc2ccccc2)c1 | ? | ? |
| O=C(OC1Cc2c(O)cc(O)cc2OC1c1cc(O)c(O)c(O)c1)c1cc(O)c(O)c(O)c1 (stereo unspecified) | -1.5% | 8.91µM* |
| C/C=C/C1=CC2=CC(=O)C(C)(OC(=O)c3c(C)cc(O)cc3O)C(=O)C2=CO1 (stereo unspecified) | 1.4% | ? |
| C=CCCN(Cc1ccccc1)S(=O)(=O)c1ccccc1Br | 6.3% | -6.7% |
| O=S(=O)(/C=C/c1ccccc1)N1CCC(n2c(C3CCCO3)nc3cccnc32)CC1 (stereo unspecified) | -8.7% | -13.7% |
| O=C(Cc1ccccc1)NO | -6.5% | 11.7% |
| CCc1nc2cc(C(=O)N(C)CC3CCCN(C)C3)cc(NC(=O)c3ccccc3OC)c2n1C (stereo unspecified) | -8.4% | 5.9% |
| CCC(C)(S(=O)(=O)CC)S(=O)(=O)CC | -16.6% | 17.1% |
| O[C@H]1CN(Cc2cccs2)[C@@H](c2ccc(Cl)cc2)C[C@H]1n1cc(C2CC2)nn1 | . | ? |
| CC(CCC(=O)OC[C@H]1O[C@H](C#Cc2ccccc2)C=C[C@H]1Oc1ccc(C)cc1)=NO[C@@H](C)CN1CCCCc2nc(C)c(C)cc21 | 23.8%[8.59 µM] | -16.3%[8.59 µM] |
| O=c1c(O)c(-c2cc(O)c(O)c(O)c2)oc2cc(O)ccc12 | ? | ? |
| CCOc1nccc2c1nc(-c1nonc1N)n2CC | . | ? |
| O=C(NCc1ccccc1)c1cccc(NC(=O)C2CC2)c1 | -17.4% | 28.0% |
| CC(C)Cc1ccc(CC(=O)O)cc1 | 7.6% | 10.8% |
| COC(=O)[C@@H](N)CSC/C=C(\C)CC/C=C(\C)CCC=C(C)C | 5.8%&-4.7%&-14.0% | 4.9%&6.8%&1.3% |
| CN(CC(=O)N[C@H](CO)Cc1ccccc1)C(=O)[C@H](CCS(C)=O)NC(=O)[C@@H](N)Cc1ccc(O)cc1 (stereo partly specified) | 2.5% | 2.1% |
| O=C1[C@H]2CCC=C[C@H]2[C@H](c2ccccc2Br)N1Cc1ccccc1 | ? | ? |
| CN1CCN(CCCN2c3ccccc3Sc3ccccc32)CC1 | ? | 14.1µM* |
| COc1cc(CN2C(=O)CC[C@@H]3CN(Cc4ccccn4)CC[C@@H]32)cc(OC)c1OC | -12.9% | 8.1% |
| Cc1oc(-c2ccccc2NC(=O)C2CCC2)nc1CNC(=O)c1c(F)ccc(F)c1F | -9.1% | ? |
| CO[C@]1(NC(=O)Cc2cccs2)C(=O)N2C(C(=O)O)=C(COC(N)=O)CS[C@H]21 | 1.1%[17.8 µM] | -6.7%[17.8 µM] |
| CC(=O)Nc1ccc(-c2c(C)cc3oc(=O)cc(-c4ccccc4)c3c2C)cc1 | 7.94µM* | -21.7% |
| Cc1cc(C)c2c(c1)OC(=O)CC2c1ccccc1C (stereo unspecified) | -9.1% | 4.4% |
| CN(C)C(CSC(N)=O)CSC(N)=O | 8.5% | -16.0% |
| COc1ccc(COc2cc(-c3cccc(OC)c3)nc3ccc(N)cc23)cc1 | ? | ? |
| O=C1CCN(Cc2ccc(-c3ccccc3)cc2)CCN1Cc1ccccn1 | -5.8% | 2.6% |
| O=C(O)CCCc1ccccc1 | 13.4%&2.1% | 2.6%&3.4% |
| CCCN(CCC)c1c([N+](=O)[O-])cc(C(F)(F)F)cc1[N+](=O)[O-] | -0.4% | -6.8% |
| C[C@H]1CC[C@H]2C(=O)N(Cc3ccccc3)C[C@@H](O)CN2[C@H]1c1ccc(Br)cc1 | 7.1%[8.59 µM] | -33.0%[8.59 µM] |
| CC(=O)OCC(=O)[C@@]1(O)[C@H](C)C[C@H]2[C@@H]3CCC4=CC(=O)C=C[C@]4(C)[C@@]3(F)[C@@H](O)C[C@@]21C | -14.0% | 3.4% |

Carrying on.
Compound,Lassa entry,MARV entry inh
COc1ccc(-c2ccc(C(=O)N(C)Cc3csc(C)n3)c(N3CCC(N4CCc5ccccc5C4)CC3)n2)cc1,-15.9%,1.7%
Cc1cccc(CNc2cc(-c3ccc(C(=O)N(C)C)cc3)ncn2)c1,-21.6%,3.1%
COc1cc(CCNC(C)=O)c(C(=O)/C=C/c2cccc(OC)c2OC)cc1OC,?,-30.1%
C=C(CO)C1Cc2c(ccc3c(=O)c4c(oc23)COc2cc(OC)c(OC)cc2-4)O1 (stereo unspecified),0.9%,7.6%
CCCNC(=O)OC[C@H]1O[C@H](CCON=Cc2ccc(C(=O)N3[C@H](C(=O)OC)CC[C@H](C)[C@@H]3c3ccc(C)cc3)cc2)C=C[C@H]1Oc1ccc(OC)cc1,.,-28.4%[8.59 µM]
CC(O)CN1CCN(CC(=O)[O-])CCN(CC(=O)[O-])CCN(CC(=O)[O-])CC1.[Gd+3] (stereo unspecified),-5.1%&-1.1%,-0.3%&16.5%
COc1cc(OC)c(C(C)=O)c(O)c1C,21.5%,-1.1%
Cc1cccc(C2=NN(c3ccccc3)[C@@H](C(=O)N3CCOC3=O)[C@@H]2c2ccc(Cl)cc2)c1,-12.3%,-22.4%
CCCN(CCC)Cc1cc(=O)oc2ccc3ccccc3c12,-14.4%,-28.1%
CN(C)c1ccc(/C=C2/C(=O)Nc3ccccc32)cc1,?,8.91µM*
CC1C(=O)CCC2[C@]1(C)CCC1[C@]2(C)CC[C@@]2(C)C3CC(C)(C)CC[C@]3(C)CC[C@@]12C (stereo partly specified),2.5%,2.8%
O=C(C1CCCCC1)N1C[C@@H](O)[C@@H](n2cc(C3CC3)nn2)C[C@@H]1c1ccccc1,?,-10.8%
C[C@]12CC[C@@H]3c4ccc(OC(=O)c5ccccc5)cc4CC[C@H]3[C@@H]1CC[C@@H]2O,?,7.8%
Cc1cccc(C(=O)N2CCC(=O)N([C@H](COCc3cccc(Cl)c3)Cc3ccccc3)CC2)c1,?,?
CC(C)C[C@@H](CC(=O)N[C@@H](CCCN)CC(=O)N[C@@H]1CCCC[C@H]1C(=O)N[C@H](CC(=O)N[C@@H](CCC(=O)O)CC(=O)O)Cc1ccccc1)NC(=O)[C@@H]1CCCC[C@H]1N,-1.1%,-3.6%
NCCCC(N)CC(=O)NCC1NC(=O)C(CO)NC(=O)C(N)CNC(=O)C(C2CCN=C(N)N2)NC(=O)/C(=C\NC(N)=O)NC1=O (stereo unspecified),-11.7%,-2.6%
Cc1ccc(CNc2nc(CN3CCSCC3)nc3ccccc23)o1,-7.1%,-11.5%
Cc1ccc([C@H]2C[C@H](O)[C@@H](n3cc(C4CC4)nn3)CN2CC2CCCCC2)cc1,?,?
CC(O)[C@@H]1NC(=O)[C@H](CCCN)NC(=O)[C@@H](Cc2c[nH]c3ccccc23)NC(=O)[C@H](Cc2ccc(O)cc2)NC(=O)[C@@H](NC(=O)[C@H](N)Cc2ccccc2)CSSC(C)(C)C(C(=O)N[C@H](C(N)=O)[C@@H](C)O)NC1=O (stereo partly specified),-12.5%,-2.2%
CC1C(=O)N(Cc2cn(CCC3OCCCO3)nn2)CCS(=O)(=O)N1Cc1ccc(-c2cccc(CO)c2)cc1 (stereo unspecified),15.7%,21.1%
CC(=O)Oc1ccc(/C=C/c2cc(OC(C)=O)cc(OC(C)=O)c2)cc1,?,?
C#CCN1C(C)=C(C(=O)CCO)[C@@H](c2cccc(-n3oo3)c2)C(C(=O)OC)=C1C,-12.2%,?
CCOC(=O)C1=C([Si](C)(C)C)c2ccccc2N(S(=O)(=O)C(F)(F)F)C1C(=O)OCC (stereo unspecified),-26.1%,3.9%
NCCC[C@H](N)CC(=O)N[C@H]1CNC(=O)[C@H]([C@H]2C[C@H](O)NC(N)=N2)NC(=O)/C(=C/NC(N)=O)NC(=O)[C@H](CO)NC(=O)[C@H](CO)NC1=O,6.4%,-17.3%
CC1(C)C2CC[C@@]1(C)C(=O)C2,-13.1%,-7.8%
Cc1cccc(C)c1NC(=O)CC12CCCN1CCC2,-18.9%,-16.6%
CN(C)CCC=C1c2ccccc2C=Cc2ccccc21,31.6µM*!,11.2µM*
Cc1cc(C(=O)NCC2CCC3(CCN(Cc4cc(F)ccc4F)CC3)O2)n(C)n1 (stereo unspecified),-12.7%,-18.3%
CC(C)(C)Nc1oc(-c2ccccc2)nc1-c1ccccc1F,2.9%,-0.4%
CC(O)(c1ccc(Cl)cc1)c1ccc(Cl)cc1,-16.3%,-10.8%
Cn1sc(Cl)cc1=O,-4.8%,15.0%
CC(C)C1C(=O)N(Cc2cn(CCC3OCCO3)nn2)CCS(=O)(=O)N1Cc1ccc(-c2cccc(N(C)C)c2)cc1 (stereo unspecified),8.3%,6.5%
NCCCCNS(=O)(=O)c1ccc2c(Cl)cccc2c1,?,?
O=C(O)COc1cccc2c1CCC=C2CCO/N=C(\c1ccccc1)c1cccnc1,-14.5%,5.2%
Cc1cc(C)c(NC(=O)C[C@H](CC(=O)O)c2cccc3ccccc23)c(C(=O)N2CCC3(CCCC3)CC2)c1,-7.0%,-12.6%
Cc1csc(CN(C)C(=O)c2sc3ncnc(NCC4CCCO4)c3c2C)n1 (stereo unspecified),3.7%,-6.7%

Three compounds out of the list, arranged by SMILES length, rising.
Compound,Lassa entry,MARV entry inh
CN(C)CCC=C1c2ccccc2C=Cc2ccccc21,31.6µM*!,11.2µM*
NCCCCNS(=O)(=O)c1ccc2c(Cl)cccc2c1,?,?
CC(C)C1C(=O)N(Cc2cn(CCC3OCCO3)nn2)CCS(=O)(=O)N1Cc1ccc(-c2cccc(N(C)C)c2)cc1 (stereo unspecified),8.3%,6.5%

Next section
Compound,Lassa entry,MARV entry inh
N#Cc1cccc(Nc2ncc(-c3ccccc3)o2)c1,2.4%,18.5%
CC/C=C\C/C=C\C/C=C\C/C=C\C/C=C\CCCC(=O)NCCCC(=O)O,3.6%,1.8%
Cc1onc(-c2ccccc2)c1-c1ccc(S(N)(=O)=O)cc1,-11.6%,-1.7%
CCCCC1=CC2=CC(=O)C(C)(OC(=O)CC)C(=O)C2=CO1 (stereo unspecified),-4.8%,-6.2%
C[C@@H]1CCC2C(C)(C)C3CC21CC[C@@]3(C)O (stereo partly specified),-23.2%,-1.5%
Cc1ccc(-c2ccc(C(=O)Nc3cccc(F)c3)o2)c2ccccc12,.,-8.1%
COc1ccc(N2C(=O)[C@@H]3C[C@H]2CN3Cc2ccc3nccnc3c2)cc1Cl,-5.9%,?
CC(C)C(C)/C=C/C(C)C1CCC2C3=CC=C4CC(O)CCC4(C)C3CCC21C (stereo unspecified),-11.0%,15.7%
CC(C)c1nc(N(C)S(C)(=O)=O)nc(-c2ccc(F)cc2)c1/C=C/C(O)CC(O)CC(=O)O (stereo unspecified),-12.6%,-0.1%
Cc1ccc2c(c1)CN(CCNC(=O)c1ccc3nc(C)[nH]c3c1)CC(C)O2 (stereo unspecified),-7.0%,1.1%
COc1cc(=O)n2c(c1C(=O)NC(C)c1ccco1)CCN(C(=O)c1cccc(C)c1)CC2 (stereo unspecified),-13.3%,12.4%
CO[C@H]1[C@H](NC(=O)C(C)C)c2ccccc2C12CCN(Cc1cnc(N(C)C)s1)CC2,3.1%,-20.2%
COc1ccc(OC)c(C(=O)N2CCc3c(cnc(C)c3CNS(=O)(=O)N(C)C)C2)c1,-7.3%,?
CC1(C)O[C@@H]2C[C@H]3[C@@H]4CCC5=CC(=O)C=C[C@]5(C)[C@H]4[C@@H](O)C[C@]3(C)[C@]2(C(=O)CO)O1,17.0%,5.4%
O=C(Nc1ccc(O)c2c(=O)cc(-c3cccc(Cl)c3)oc12)c1cccc(Cl)c1,-19.0%,?
CNC(=O)C[C@H]1C(=O)N(Cc2ccccc2)C[C@@H]1Cc1ccccc1,11.5%,28.7%

Whole records, looked up by structure. Screens in order: Lassa entry, MARV entry inh
Profile of `CNC(=O)C[C@H]1C(=O)N(Cc2ccccc2)C[C@@H]1Cc1ccccc1` = 11.5%, 28.7%
Profile of `CC1(C)O[C@@H]2C[C@H]3[C@@H]4CCC5=CC(=O)C=C[C@]5(C)[C@H]4[C@@H](O)C[C@]3(C)[C@]2(C(=O)CO)O1` = 17.0%, 5.4%
Profile of `O=C(Nc1ccc(O)c2c(=O)cc(-c3cccc(Cl)c3)oc12)c1cccc(Cl)c1` = -19.0%, ?
Profile of `COc1ccc(OC)c(C(=O)N2CCc3c(cnc(C)c3CNS(=O)(=O)N(C)C)C2)c1` = -7.3%, ?
